Sfp inh = Sfp phosphopantetheinyl transferase inhibition; Q9F4F7; Biochemical Sfp PPTase activity, qHTS; Potency, µM, inactives show max response, negative = inhibition, actives largely listed as inhibitors; AID 1490; 310,000 tested, 3.5% active; active = well fitted inhibition curve with a large enough effect; inconclusive = small, poorly fitted or top-dose-only effect, or another doubt; inactive = no such curve, though single readings can be large or run the other way;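 note: the enzyme is Sfp with the accession as filed and its product quenches rhodamine fluorescence; potency is the fitted concentration of half-maximal effect; 0% = enzyme reaction without inhibitor and -100% = no enzyme wells; top concentration of the series not given in the record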
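Fluorescence-quenching assay: 15 nM Sfp-PPTase preincubated 15 min at room temperature with compound, then 5 uM rhodamine-CoA and 12.5 uM BHQ-2-labelled YbbR peptide added. Fluorescence (ex 525/em 598 nm) read at start and after 30 min; difference gives rate.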
ClpP mod = qHTS Assay for Activators of ClpP | 340,000 tested, 1.9% active | ATP-dependent Clp protease proteolytic subunit (Bacillus subtilis (strain 168)), P80244 | purified B. subtilis ClpP, FRET peptide cleavage, 20 min | Potency, µM (top dose mostly 57.5 µM), without a hit: at the highest dose activity change, negative = active; active = well fitted falling curve with a large enough effect; inconclusive = small, poorly fitted or top-dose-only effect; inactive = no such curve, though single readings can be large or run the other way; note: potency is the fitted concentration of half-maximal effect; the source files actives as falling curves though it sought activators and does not explain the sign; nearly all actives have a fitted effect of over 65% in size; many hits overshoot -100%
Target sequence (P80244 whole entry, looked up): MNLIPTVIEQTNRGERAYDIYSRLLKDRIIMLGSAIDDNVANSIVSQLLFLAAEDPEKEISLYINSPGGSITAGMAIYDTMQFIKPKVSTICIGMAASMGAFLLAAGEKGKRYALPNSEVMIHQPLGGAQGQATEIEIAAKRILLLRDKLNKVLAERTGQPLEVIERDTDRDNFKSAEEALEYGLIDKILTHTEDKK
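Purified B. subtilis ClpP, 10 microg/mL final in Tris/HCl pH8 with KCl, BSA, glycerol and Tween-20, cleaved an Abz/nitrotyrosine-quenched decapeptide. Fluorescence (ex 320, em 430) was read at 0 and 20 min at room temperature. Delta was normalized to 5.8 microM ADEP and DMSO/no-enzyme controls.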
Menin-MLL FL inh = inhibitors of human menin-MLL interaction, wild-type MLL peptide; FP activity change, % at 61.4 µM; 290,000 tested, under 10 active; Fluorescence polarization, fluorescein-MLL peptide displacement from menin; AID 1766; inconclusive = falling polarisation curve, or a change in total fluorescence; inactive = total fluorescence flat and polarisation flat or rising; no compound was filed as active; the % refers to the polarisation; negative = inhibition;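 note: % of control where 0% means no effect; inhibitors lower the polarisation; unlabelled MLL peptide was the positive control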
gsp ag = activates gsp, the McCune-Albright syndrome mutation; gsp mutant cells, cAMP HTRF, 30 min; control for the full effect not named in the record; Potency, µM (series often up to 76.9 µM), for the others: top-dose activation (cAMP increase), hits mostly activators; AID 624287; 340,000 tested, 0.13% active; active = well fitted activation curve with a large enough effect; inconclusive = small, poorly fitted or top-dose-only effect, or another doubt; inactive = no such curve, though single readings can be large or run the other way; cell line not stated here;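 note: phosphodiesterase inhibitor Ro 20-1724 added with compounds to block cAMP breakdown; potency is the fitted concentration of half-maximal effect; nearly all actives have a fitted effect of over 60% in size; about a fifth of the inactives were tested at one dose only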
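Cells stably selected in G418 were plated at 2000/well, grown 16-24 hr, then given compounds in DMSO with the PDE inhibitor […] (300 uM solution added) for 30 min at 37C; cAMP was read by HTRF.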
TRPV1 PAM = enhances activation of the human vanilloid receptor TRPV1; TRPV1-expressing cells, Fluo-8 calcium influx, capsaicin EC20 potentiation; host cell line not named in the record; control for the full effect not named in the record; potentiation, % at 8.33 µM; 320,000 tested, 0.02% active; active means potentiation above 80%; inconclusive means 30% to 80%; inactive means below 30%; note: 0% is about no effect
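Cells expressing TRPV1 were dye-loaded with Fluo-8 and read kinetically: 10 s baseline, 3 min after compound (agonist portion), then 2 min after EC20 capsaicin (allosteric enhancer portion). Calcium-bound dye fluorescence at 480/520 nm.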
gsp antag = gsp mutant antagonism | gsp-mutant cells, cAMP HTRF, 30 min; control for the full effect not named in the record | Potency, µM (highest dose often 76.9 µM), for inactives: at the top dose activity change, negative = inhibition, hits mostly inhibitors | 340,000 tested, 0.4% active | AID 624288; active = falling curve of any shape with a large fitted effect; inconclusive = falling curve, mostly with a smaller effect; inactive = flat or rising curve; cell line not stated here;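 note: intracellular cAMP measured with PDE inhibitor Ro 20-1724 present during compound exposure; potency is the fitted concentration of half-maximal effect; % is set by controls: 0 for no effect and ±100 for the full control effect; nearly all actives have a fitted effect of over 65% in size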
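HTRF cAMP measurement after 30 min RT detection following 30 min, 37C compound treatment alongside […] (added as 300 uM solution) in G418-selected cells seeded at 2000/well and grown 16–24 h.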
TRPML1 blocker = inhibitors of human TRPML1 channel; Q9GZU1; activity change, negative = inhibition, % (no concentration beside the values); 390,000 tested, 0.02% active; TRPML1-inducible cells, Ca2+ dye fluorescence, FDSS; active compounds read low; inhibition of EC80 agonist-evoked calcium signal; in the data active means activity change below about -50%; inconclusive means about -30% to -50%; inactive means above about -30%;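 note: stimulus is agonist 54-4 at its EC80 concentration; % is set by controls: 0 for no effect and ±100 for the full control effect; compound concentration not given in the record; the text of the record puts the active cut at -80%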
Target sequence (Q9GZU1 whole entry, looked up): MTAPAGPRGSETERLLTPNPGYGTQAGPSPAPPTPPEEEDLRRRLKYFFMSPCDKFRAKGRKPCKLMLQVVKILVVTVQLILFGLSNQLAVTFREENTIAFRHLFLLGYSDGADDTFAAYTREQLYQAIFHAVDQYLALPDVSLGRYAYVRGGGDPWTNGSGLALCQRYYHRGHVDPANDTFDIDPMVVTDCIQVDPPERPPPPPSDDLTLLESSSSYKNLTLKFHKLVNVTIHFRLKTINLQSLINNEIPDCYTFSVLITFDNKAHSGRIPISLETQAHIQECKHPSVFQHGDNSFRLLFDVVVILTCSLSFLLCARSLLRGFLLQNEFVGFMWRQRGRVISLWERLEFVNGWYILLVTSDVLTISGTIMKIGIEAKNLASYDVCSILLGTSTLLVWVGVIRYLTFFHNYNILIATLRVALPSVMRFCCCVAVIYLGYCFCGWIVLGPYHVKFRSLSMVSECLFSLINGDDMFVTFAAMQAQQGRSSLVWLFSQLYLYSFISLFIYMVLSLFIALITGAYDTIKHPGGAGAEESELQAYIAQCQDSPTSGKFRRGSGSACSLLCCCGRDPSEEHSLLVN
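Tet-induced TRPML1-DL cells loaded with Ca8 no-wash calcium dye were read kinetically on FDSS. Compound addition was followed by EC80 agonist 54-4 (4 uM final); inhibition was read over 110 s.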
Numbers without * were called inactive; u = inconclusive; x = no result given; & = joins results of further samples; [ ] = another dose, or the depositor's remark. Hits appear at their usual frequency; any-hit rate near 4.9%.

SMILES	Sfp inh	ClpP mod	Menin-MLL FL inh	gsp ag	TRPV1 PAM	gsp antag	TRPML1 blocker
CCN(c1ccc(OC)cc1)S(=O)(=O)c1nnc(NC(=O)C2CCCCC2)s1	13%	0.5%	x	2%	-5	3%	-9
Cc1ccccc1OCC(=O)N(Cc1cccc(F)c1)C1CCS(=O)(=O)C1 (centres undefined)	14%	-1.2%	x	-71%[inhibitor]	-13	-1%	-7
C/C=C/COC(=O)c1[nH]c2c(c1C)C(=O)CC(c1ccco1)C2 (centres undefined)	50µM*	0.9%	7.3	-13%	-8	10%	-24
COc1cccc(CNC(=O)C2CCN(S(=O)(=O)c3cccs3)CC2)c1	-14%	-1.8%	2.7	-18%	-24	-4%	7
CCOc1ccc(OCC)c(S(=O)(=O)NCc2ccccn2)c1	-22%	0.5%	2.6	-30%[inhibitor]	13	0%	0
Cc1nnc(SCC(=O)Nc2ccc3c(c2)OCO3)s1	5%	x	-0.3	30%	13	-4%	-3
O=C(NC1CCCC1)C1CCN(C(=O)Nc2cccc(Cl)c2)CC1	9%	x	11	-5%	-16	9%	2
CCN(CC)CCSc1nc2ccc(OC)cc2[nH]1	-13%	-0.6%	0.7	-25%	x	8%	x
O=C(O)c1cc(NCc2ccccc2C(F)(F)F)ccc1N1CCOCC1	10%	-3.2%	0.3	8%	-2	8%	0
CCc1ccc(C(=O)COC(=O)CNC(=O)c2ccco2)cc1	7%	-4.4%	1.1	-19%	-12	-12%	-20
O=CN1CCN(C(=O)c2cc3cc(Cl)ccc3[nH]2)CC1	24%	0.2%	2.3	-4%[15.4 µM]	-1	6%	13
CN1CCN(C(=O)c2ccc(-c3cccs3)s2)CC1	7%	x	1.2	-10%	-14	2%	-1
CC(C)(C)CC(=O)Nc1nnc(SCC(=O)NC2CCCC2)s1	14%	x	0.7	6%[15.4 µM]	-3	10%	9
COc1ccc(-c2nc(NC(=O)C3CCN(c4nc5ccccc5o4)CC3)sc2C)cc1	5%	-1.2%	3.4	10%	-3	4%	4
CCOC(=O)COc1ccc2c3c(c(=O)oc2c1C)CCC3	3%	13µM*	-1.3	-15%	-20	-23%	-10
COCCn1c(SCC(=O)NCCCN2CCCC2=O)nc2sc3c(c2c1=O)CCCC3	x	-3.6%	x	15%	x	-8%	3
Cn1c2c(c(=O)n(C)c1=O)C(c1ccc(F)cc1)C(C#N)=C(N)O2 (centres undefined)	2%	x	18	-2%[15.4 µM]	-1	-7%	6
CCn1c(=O)c(C(=O)NNC(=O)c2ccccc2F)c(O)c2ccccc21	12%	x	-12	-14%	-18	-18%	-1
CCN(C(=O)COc1ccc2ccc(=O)oc2c1)C1CCCCC1	x	25µM*	x	-48%[inhibitor]	x	-2%	26
CNC(=O)NNC(=O)c1onc(-c2c(Cl)cccc2Cl)c1C(=O)OC	-1%	-0.7%	-0.3	2%[15.4 µM]	u	0%	2
COc1cc2[nH]c(C(=O)N3CCc4ccccc43)cc2c(OC)c1OC	-2%	-1.2%	2.3	10%	-9	6%	x
Cc1cccc(-c2oc3ccc(-c4ccc5c(c4)OCO5)cc3c2/C=C/c2ccc(N)cc2)c1	26%	14%	6.2	u	-7	11%	15
O=C(O)c1cn(-c2ccccc2)c(=O)c2ccccc12	9%	-12%	1.6	23%	2	-11%	36
NS(=O)(=O)c1cccc(NS(=O)(=O)c2ccc(/C=C/C(=O)OCC(=O)c3ccc(Br)cc3)cc2)c1	42%[activator]	x	0.2	-1%[15.4 µM]	3	-1%	26
CC(=O)c1c(C)[nH]c(C(=O)CSc2nnc(NC3CC3)s2)c1C	x	x	x	-1%[15.4 µM]	-2	-36%	-12
Cc1cc(C)nc(NS(=O)(=O)c2ccc(CC(C)C)cc2)c1	-8%	x	-1.1	4%[15.4 µM]	-19	8%	-27
O=C(NCCCN1CCOCC1)c1sc2ccccc2c1Cl	11%	-0.6%	7.1	-22%	26	2%	13
CC1(C)Cc2c(sc3nc(-c4cc5ccccc5o4)n(N)c(=O)c23)CO1	8%	-7.9%	1.0	u	3	2%	1
O=C1C=C(c2cccc(Cl)c2O)C[C@@H](c2ccc(F)cc2)C1	x	0.9%	x	-13%	1	-4%	-10
O=C(Nc1nccs1)c1ccc(Cl)c(S(=O)(=O)N2CCOCC2)c1	4%	0.9%	1.0	-3%	-11	0%	4
COc1ccc(CNC(=O)CCn2c(=O)[nH]c3ccccc3c2=O)cc1	10%	28µM*	-0.2	-20%[15.4 µM]	9	3%	2
Cc1cc(C)nc(/N=C2\NC(=O)CC(C(=O)O)N2c2ccc(F)c(Cl)c2)n1 (centres undefined)	-3%	x	0.7	x	-2	x	x
Cc1nn(CC(=O)NCC2CCCO2)c(C)c1[N+](=O)[O-] (centres undefined)	3%	0.4%	-1.0	-34%	3	19%	-27
COc1ccc(Cl)cc1C(=O)NNC(=O)CNC(=O)c1ccco1	x	-0.3%	x	19%	x	9%	5
COc1cc(/C=N/N(c2ccccc2)c2ccccc2)ccc1O	15%	-1.5%	3.0	-9%[15.4 µM]	-28	-1%	-16
Cn1c(COc2ccccc2)nnc1SCCSc1nnc(COc2ccccc2)n1C	18%	-0.5%	-0.3	-22%	2	-2%	4
CN(C)c1ccc(NC(=O)Cn2c(=O)n(Cc3ccccc3)c(=O)c3ccccc32)cc1	-13%	2.3%	0.5	-35%	10	17%	4
CC(C)/C=N/NC(=O)c1cccc(N2CCCC2=O)c1	9%	0.2%	0.0	11%	2	6%	-6
Cc1ccc(Cl)cc1NC(=O)COc1ccccc1	2%	-3.0%	-3.6	-44%[inhibitor]	25	3%	x
CCC1(c2ccc(F)cc2)NC(=O)N(CC(=O)N2c3ccccc3CC2C)C1=O (centres undefined)	x	0.1%	x	29%	-7	-3%	8
CCc1c(C)nc(SCC(=O)NC2CCCC2)[nH]c1=O	13%	x	-2.9	u	-6	2%	-3
O=C1CN(C(=O)c2ccco2)C(c2ccccc2)c2cc(Cl)ccc2N1 (centres undefined)	-6%	7.1%	0.7	-2%[15.4 µM]	-7	3%	18
O=C1c2cccc3cc([N+](=O)[O-])cc(c23)C(=O)N1CC1CCCO1 (centres undefined)	2%	-1.6%	-7.1	4%[15.4 µM]	5	-16%	-6
CC(C)Cn1c(N)c(C=O)c(=O)n(C)c1=O	-5%	x	-1.4	-1%[15.4 µM]	u	x	16
COc1cc(C2C(C(=O)c3cccs3)=C(O)C(=O)N2CCN2CCOCC2)cc(OC)c1OC (centres undefined)	5%	-0.3%	5.7	4%[15.4 µM]	-4	8%	9
CCCOc1ccc(N2C(=O)CC(N(CCc3ccc(OC)cc3)C(=O)c3cccc(F)c3)C2=O)cc1 (centres undefined)	2%	-1.3%	0.0	0%	6	-17%	4
Cn1c(-c2ccccc2)cnc1NCc1cccc([N+](=O)[O-])c1	-17%	1.4%	1.5	27%	-14	14%	23
Cc1cc(C(=O)NNC(=S)NC2CCCCC2)cs1	13%	8.3%	x	0%	-10	11%	-8
Cc1ccc(NS(=O)(=O)c2cc3c4c(c2)CC(=O)N4CCC3)cc1C	5%	0.0%	x	5%	4	-7%	-10
CSCCCNC(=S)Nc1ccc(N2CCOCC2)cc1	-13%	x	-1.1	3%[15.4 µM]	3	0%	0
COC(=O)c1ccc(NC(=O)COc2ccc(S(=O)(=O)N3CCCCC3)cc2)cc1	20%	-0.1%	2.2	7%	-10	3%	11
CC(=O)Nc1ccc(S[C@@H](CCN2CC[C@H](C(C)(C)C)CCC2=O)c2ccccc2)cc1	x	-0.9%&1.7%	x	x	-2	u	-10
CC(C)Cc1nnc(NC(=O)C2CC(=O)N(c3ccc4c(c3)OCCO4)C2)s1 (centres undefined)	x	-2.2%	x	5%	-3	-4%	-3
CC(=O)Nc1nc(C)c(C(C)(C)C)s1	u	x	0.7	30%[15.4 µM]	-4	10%	18
Cn1ncc([N+](=O)[O-])c1C(=O)Nc1ccc(Cl)cc1	14%	-3.9%	-6.4	29%	-3	-4%	x
O=C1C=C(c2ccc3c(c2)OCO3)C[C@@H](c2ccc(F)cc2)C1	x	0.1%	x	x	-16	2%	-12
O=C(NNC(=O)c1ccccc1O)c1ccc(Cl)cc1	14%	0.5%	-6.2	-12%	10	-5%	-4
CCOC(=O)N1CCC(N2Cc3cccc(C(=O)NCc4ccccc4OC)c3C2=O)CC1	7%	0.7%	2.3	-23%	15	-25%	11
COc1cc2c(cc1OC)CN(CCC(C)c1ccc(Cl)cc1)CC2 (centres undefined)	x	x	x	-31%[inhibitor][15.4 µM]	x	-5%	-8
COCCn1c(-c2cc(OC)c(OC)c(OC)c2)nc2nc3ccccc3nc21	7%	x	4.7	x	4	x	x
Continuation:
SMILES	Sfp inh	ClpP mod	Menin-MLL FL inh	gsp ag	TRPV1 PAM	gsp antag	TRPML1 blocker
CC(C)OC(=O)CSc1nnc2n1C(C)(C)Cc1ccccc1-2	10%	-4.1%	-0.2	-1%	-9	-12%	-5
CSc1nc2sc3c(c2c(=O)n1CC(C)C)CC(C)(C)OC3	17%	-0.1%	-1.0	6%[15.4 µM]	-1	-3%	-10
CCCc1nnc(NC(=O)C2CCN(C(=O)C3CC(=O)N(c4ccc(C)cc4)C3)CC2)s1 (centres undefined)	-18%	x	-0.4	1%[15.4 µM]	5	1%	22
COc1ccccc1NC(=O)C(C)OC(=O)C1CC(=O)N(Cc2ccco2)C1 (centres undefined)	x	-1.4%	x	-186%[inhibitor]	x	x	-11
CC(C)(CCl)C(=O)Nc1ccc(Sc2ccc(F)cc2)cc1	-1%	0.1%	2.5	8%	-8	u	8
COc1ccc(NC(=S)NCc2cccnc2)cc1OC	10%	0.8%	2.0	8%	6	15%	22
COc1ccccc1N(Cc1ccccc1)S(=O)(=O)c1cccc(C(=O)O)c1	4%	0.9%	-3.7	-10%[15.4 µM]	-3	-12%	-12

Taken from above for reference:
SMILES	Sfp inh	ClpP mod	Menin-MLL FL inh	gsp ag	TRPV1 PAM	gsp antag	TRPML1 blocker
CC(C)OC(=O)CSc1nnc2n1C(C)(C)Cc1ccccc1-2	10%	-4.1%	-0.2	-1%	-9	-12%	-5
CSc1nc2sc3c(c2c(=O)n1CC(C)C)CC(C)(C)OC3	17%	-0.1%	-1.0	6%[15.4 µM]	-1	-3%	-10

Screening data from PubChem.
